Bioassay records: PubChem BioAssay, National Center for Advancing Translational Sciences (NCATS)
nsP2pro inh: CHIKV nsP2 protease inhibition, primary qHTS | Q8JUX6 | FRET peptide cleavage, nsP2pro, fluorescence 1 h | Potency, µM (top dose mostly 24.9 µM), inactives show top-dose activity change, negative = inhibition, most hits filed as inhibitors | 31,000 tested, 1.1% active; active means well fitted inhibition curve with a large enough effect; inconclusive means small, poorly fitted or top-dose-only effect; inactive means no such curve, though single readings can be large or run the other way; further: nearly all actives have a fitted effect of over 60% in size; a reference inhibitor and vehicle were the controls
An asterisk follows results filed as active; i = inactive; ? = inconclusive; & = joins results of further samples; [ ] = another dose, or the depositor's remark. On the % scale 0 is the no-effect control and ±100 the full control effect; potency means the concentration at half of the fitted maximal effect. Some of the compounds tested; the hit share may differ from the screen's.

SMILES	nsP2pro inh
CC(C)(C)c1ccc(OCC(=O)Nc2ccc(S(=O)(=O)Nc3ncccn3)cc2)cc1	-22%
O=C(Cc1ccc(F)cc1)NC1CCN(c2cc(-c3ccccc3)[nH]n2)CC1	-25%
CC1(C(=O)N2CCOCC2)CN(Cc2ccccc2)Cc2ccc(Nc3ccccc3)nc21 (stereo unspecified)	-3%
Cc1ccc(S(=O)(=O)NCCSc2nnnn2-c2ccc(Cl)c(C(=O)O)c2)cc1	-15%
Cc1nc2nc(SCC(=O)NCCc3ccc(Cl)cc3)nn2c(C)c1Cc1ccccc1Cl	-21%
O=C(Cn1ncc2c3ccccc3n(Cc3ccccc3F)c2c1=O)NC1CCCCCC1	-18%
CC[C@H](C)[C@H](N)C(=O)N1CCC(Cn2cc(C3CCCC3)nn2)CC1	-3%
COc1ccc(CC(=O)N2C[C@@H](CO)[C@H](c3ccccn3)C2)cc1	-6%
NC(=O)c1cccc(C[C@H](C(=O)O)N2C(=O)c3ccc(C(=O)O)cc3C2=O)c1	-3%
CCCNC(=O)N1CCCCC1c1n[nH]c(C)n1 (stereo unspecified)	-9%
N#Cc1ccc(CN2CCCC3(Cc4ccccc4NC3=O)C2)cc1 (stereo unspecified)	-9%
Cc1ccc([S+](=O)([O-])NC2CCN(CCn3nc4n(c3=O)CCCC4)C2)cc1 (stereo unspecified)	-19%
C=CC(=O)N1CC/C(=C\c2ccc(F)c([N+](=O)[O-])c2)C(=O)/C(=C/c2ccc(F)c([N+](=O)[O-])c2)C1	-14%
COc1ccc(CCNC(=O)Cc2c(C)c3c(cc(C)c4c(C)coc43)oc2=O)cc1OC	-16%
COC[C@H](C)Oc1cc(O[C@@H](C)Cc2ccccc2)cc(C(=O)Nc2ccc(C(=O)O)cn2)c1	16%
COc1ccc(-c2cn3nc(N4CCCC(C(=O)Nc5ccccc5OC)C4)sc3n2)cc1 (stereo unspecified)	?
CCc1ccccc1NC(=O)Cn1nc(C(F)(F)F)c2c1CCCC2	-16%
COc1ccc(C2Nc3ccccc3C(=O)N2Cc2ccco2)cc1 (stereo unspecified)	?
COc1ccc(C2C(=O)N(C3CCCCC3)CC(=O)N2CCC2=CCCCC2)cc1 (stereo unspecified)	-18%
O=C(CN1C(=O)CCc2cc(Br)ccc21)Nc1ccc(OC(F)(F)F)cc1	-12%
O=C(OCC(O)CO[C@@H]1O[C@H](C(=O)O)[C@@H](O)[C@H](O)[C@H]1O)c1ccccc1 (stereo partly specified)	52%[activator]
Nc1ccccc1OCCn1c(CCNC(=O)C2CCCCC2)nc2ccccc21	-7%
O=C(NCCc1ccc(Cl)cc1)c1ccc(Cn2c(=O)[nH]c3ccccc3c2=O)cc1	-14%
COc1c2occc2cc2ccc(=O)oc12	-13%&-1%
CC1CCC2C(C)(C)C(O)C(O)CC2(C)C12Cc1c(O)cc(CO)c(C=O)c1O2 (stereo unspecified)	2%[10 µM]
Cc1ccc(C(=O)NC(c2ccco2)c2cc(Cl)c3cccnc3c2O)cc1 (stereo unspecified)	i
C[S+](=O)([O-])N1CCC(Cn2ccc3c(N4CCOCC4)nc(-c4cccc5[nH]ncc45)cc32)CC1	i
COc1ccccc1/C=C/CN1CCn2nc(CO)cc2C1	i
CC(C)=CCC1C(=O)N(c2ccccc2)N(c2ccccc2)C1=O	-4%
Cc1ccc2c(n1)Oc1ccc(C(C)C(=O)OCC(=O)N(C)C)cc1C2 (stereo unspecified)	-1%&-8%
COc1ccc(OC)c(NC(=O)CSC2=Nc3ccccc3C3=NC(CCC(=O)NC4CCCCC4)C(=O)N23)c1 (stereo unspecified)	-20%
COC[C@H]1NC(=O)CC[C@H]1C(=O)NC1CCN(Cc2ccccc2)CC1	i
N#Cc1ccnc(-c2nnc3ccc(NC4CC4)nn23)c1	0%[39.2 µM]
C#C[C@]1(O)CC[C@H]2[C@@H]3CCC4=Cc5oncc5C[C@]4(C)[C@H]3CC[C@@]21C	4%
Cc1ccc(Nc2nnc(-c3ccc(C)c(S(=O)(=O)N4CCN(C)CC4)c3)c3ccccc23)c(C)c1	13%
Cc1ccc(NC(=O)CN2C(=O)CCc3cc(S(=O)(=O)N4CCCCC4)ccc32)cc1C	-18%
CC(C)(C)C(=O)OCOC(=O)[C@@H]1N2C(=O)[C@@H](NC(=O)[C@H](N)c3ccccc3)[C@H]2SC1(C)C	8%
COCCOCc1nc(C2CCNCC2)no1	-5%
O=C(Nc1ncc(Cc2ccc(C(F)(F)F)cc2)s1)c1ccc(-c2ccccc2)o1	-4%
O=C(O)[C@@H]1CN(C(=O)Cc2ccc(O)cc2)C[C@H]1c1cccc(F)c1	-17%
Cc1cccc(Nc2c3c(nc4nncn24)CCC3)c1C	-24%
S=P(c1ccccc1)(c1ccccc1)c1c[nH]c2ccccc12	1%
Cc1cc(-c2nnc3n2CCCCC3)c(C)n1-c1cccc2ccccc12	-13%
COc1ccc2c(Sc3ccccc3)c(C(=O)NCCN(C)C)[nH]c2c1	-18%
C[C@@H]1O[C@@H](O[C@H]2[C@H](O)[C@@H](O)[C@H](OC(=O)[C@]34CCC(C)(C)C[C@H]3C3=CCC5[C@@]6(C)CC[C@H](O[C@@H]7O[C@H](C(=O)O)[C@@H](O)[C@H](O)[C@H]7O)C(C)(C)C6CC[C@@]5(C)[C@]3(C)CC4)O[C@@H]2CO)[C@H](O)[C@H](O)[C@H]1O (stereo partly specified)	16%[5.1 µM]
O=C(Nc1cccc(C(F)(F)F)c1)c1cc2nc(-c3ccco3)cc(C(F)(F)Cl)n2n1	-2%
CC(O)CCNS(=O)(=O)c1ccc2c(c1)CN(C(=O)c1ccon1)CC2 (stereo unspecified)	1%
CN(C)C1C(=O)C(C(N)=O)=C(O)C2(O)C(=O)C3=C(O)c4c(O)ccc(Cl)c4C(C)(O)C3CC12 (stereo unspecified)	-3%
COc1cc2c(cc1OC)CN(C(=O)Nc1ccccc1)CC2	-11%
CC(C)(C)NCC(O)c1cc(Cl)c(N)c(Cl)c1 (stereo unspecified)	-6%
Going on with the list:
SMILES	nsP2pro inh
C[C@H]1[C@@H](OC(=O)CCC(=O)O)O[C@@H]2O[C@@]3(C)CC[C@@H]4[C@H](C)CC[C@@H]1[C@@]24OO3	-2%
O=S(=O)(NCCc1noc(-c2ccccc2)n1)c1ccc2c(c1)OCCO2	-3%
Cc1cc(C(=O)N2CC(N(C(=O)NC(C)C)C3CCOCC3)C2)nn1C	i
CCCn1c2ccccc2c2cnn(CC(=O)N(C)c3ccc(F)cc3)c(=O)c21	-21%
O=C(c1ccccn1)N1CCC2(CC(c3cccc(C(F)(F)F)c3)=NO2)C1 (stereo unspecified)	i
CN(Cc1ccco1)c1ncnc2ccc(-c3ccc4c(c3)OCO4)cc12	?
O=C(NCc1ccccc1)c1ccc2c(=O)n(-c3cccc(C(F)(F)F)c3)c(=S)[nH]c2c1	0%
Cc1ccc(NS(=O)(=O)c2cc3c(cc2-c2ccccc2)NC(=O)CO3)cc1C	-4%
O=S(=O)(Cl)c1ccc(-c2ccccc2)cc1	-10%
CC(C)N(Cc1cccc(N2CCN(S(=O)(=O)c3c(Cl)cccc3Cl)CC2)c1F)S(C)(=O)=O	3%
CS(=O)(=O)N1CCC(OC2CCN(C(=O)c3cccnc3)CC2)CC1	i
CC(CNC(=O)c1ccc(Cn2c(=O)c3cccn3c3cccnc32)cc1)c1ccccc1 (stereo unspecified)	3%
NC(=O)c1cc[n+](CC2=C(C(=O)O)N3C(=O)[C@@H](NC(=O)[C@@H](c4ccccc4)S(=O)(=O)[O-])[C@H]3SC2)cc1	?
Cn1cnc(S(=O)(=O)N2CCC(C(=O)Nc3ccc(Cl)c(C(F)(F)F)c3)CC2)c1	-12%
O=C1N(Cc2cccc(F)c2F)CCCC1(O)CNCc1ccccc1 (stereo unspecified)	-1%
O=[S+]([O-])(Nc1ccccc1)c1ccc(NCc2ccc(Cl)cc2O)cc1	-16%
C/C=C/C=C/C(=O)O	-11%
O=C(Nc1ccc(Oc2ccccc2)cc1)N[C@H]1CO[C@H]2[C@@H]1OC[C@@H]2n1nnnc1Oc1ccc(-n2cncn2)cc1	i
Cc1cc(=O)[nH]c2nnc(SCC(=O)Nc3cc(C(F)(F)F)ccc3Cl)n12	1%
CCOc1ccc(C(=O)Nc2ccc(-c3nnc4n3CCCCC4)cc2)cc1OCC	10µM*

Six structures from above, sorted by formula weight, rising.
SMILES	nsP2pro inh
C/C=C/C=C/C(=O)O	-11%
CS(=O)(=O)N1CCC(OC2CCN(C(=O)c3cccnc3)CC2)CC1	i
O=[S+]([O-])(Nc1ccccc1)c1ccc(NCc2ccc(Cl)cc2O)cc1	-16%
CCOc1ccc(C(=O)Nc2ccc(-c3nnc4n3CCCCC4)cc2)cc1OCC	10µM*
CC(CNC(=O)c1ccc(Cn2c(=O)c3cccn3c3cccnc32)cc1)c1ccccc1 (stereo unspecified)	3%
O=C(Nc1ccc(Oc2ccccc2)cc1)N[C@H]1CO[C@H]2[C@@H]1OC[C@@H]2n1nnnc1Oc1ccc(-n2cncn2)cc1	i

More structures.
SMILES	nsP2pro inh
CC(C)OCCCNC(=O)c1cc(-c2cccc(C(F)(F)F)c2)c2cccn2n1	-7%
Cc1ccc(C)c(S(=O)(=O)c2nnn3c2nc(N2CCN(C)CC2)c2sccc23)c1	-22%
CCOC(=O)c1c(C)oc2nc(C)nc(NCC3CCN(Cc4cccc(C)c4)CC3)c12	?
CCCS(=O)(=O)Nc1ccc(=O)n2c1[C@@H]1C[C@@H](CN(C(=O)COc3ccccc3)C1)C2	?
Cc1ncc([N+](=O)[O-])n1CC(C)O (stereo unspecified)	-1%[39.2 µM]
COC(=O)c1sccc1S(=O)(=O)N(CC(=O)Nc1ccc(C)c(F)c1)c1ccc(C)c(C)c1	-22%
CC(C)(C)C(=O)Nc1ccc2c(c1)C(=O)C(=O)c1ccccc1-2	-43%
CCOC(=O)[C@H](C)C[C@@H](Cc1ccc(-c2ccccc2)cc1)NC(=O)CCC(=O)O	-11%&8%
O=C(CCS(=O)(=O)c1cc2c(cc1Cl)NC(=O)CO2)NCc1ccccc1	-11%
CC(=O)O[C@]1(C(C)=O)CC[C@H]2[C@@H]3C=C(Cl)C4=CC(=O)CC[C@]4(C)[C@H]3CC[C@@]21C	-1%
O=C1N/C(=C\c2ccco2)C(=O)N1Cc1ccc(F)cc1	i
CSCCCN1CC[C@@H](NC(=O)c2ccncc2)[C@H](O)C1	-9%
CCOc1ccccc1NC(=O)c1c(NC(=O)c2ccncc2)sc2c1CCC(C(C)(C)C)C2 (stereo unspecified)	?
O=C(COc1ccccc1)N1CCC(OCc2ccccc2)C1 (stereo unspecified)	-2%
Cc1ccc(C)c(SC2=NS(=O)(=O)c3ccccc32)c1	0%
CC(=O)NCCCC(=O)N1CCC2(CC1)CN(C(=O)N(C)C)Cc1ccccc1O2	9%
S=C(NC1CCCCC1)N[C@H]1CO[C@H]2[C@@H]1OC[C@@H]2n1nnnc1Oc1ccc(-n2ccnc2)cc1	40%[activator]
Cc1cc2c(s1)c1cnn(Cc3ccc(C(C)C)cc3)c(=O)c1n2C	i
O=C(NC1CC(=O)N(c2cccc(F)c2)C1)c1ccc(S(=O)(=O)N2CCCCC2)cc1 (stereo unspecified)	-16%
O[C@@H]1C[C@@H](c2nc(-c3ccncc3)no2)N(Cc2cccs2)C1	-9%[39.2 µM]

No new results follow: 6 of the compounds above.
SMILES	nsP2pro inh
Cc1ccc(C)c(SC2=NS(=O)(=O)c3ccccc32)c1	0%
CC(=O)NCCCC(=O)N1CCC2(CC1)CN(C(=O)N(C)C)Cc1ccccc1O2	9%
S=C(NC1CCCCC1)N[C@H]1CO[C@H]2[C@@H]1OC[C@@H]2n1nnnc1Oc1ccc(-n2ccnc2)cc1	40%[activator]
Cc1cc2c(s1)c1cnn(Cc3ccc(C(C)C)cc3)c(=O)c1n2C	i
O=C(NC1CC(=O)N(c2cccc(F)c2)C1)c1ccc(S(=O)(=O)N2CCCCC2)cc1 (stereo unspecified)	-16%
O[C@@H]1C[C@@H](c2nc(-c3ccncc3)no2)N(Cc2cccs2)C1	-9%[39.2 µM]

(continued)
SMILES	nsP2pro inh
CCN(CC)CCOCCOC(=O)C1(c2ccccc2)CCCC1	13%
Cc1noc(C)c1-c1ccc2ncnc(NCc3ccc(F)cc3)c2c1	-8%
COc1ccccc1OC1(C(=O)O)CCN(Cc2ccc(-c3ccn[nH]3)o2)CC1	1µM*
Cc1cc(-c2ccc(C)c(S(=O)(=O)N(C(C)C)C3CCCCC3)c2)on1	-11%
CCOC(=O)c1cc2c(=O)n3ccccc3nc2n(CC2CCCO2)c1=NC(=O)c1ccc(OC)cc1OC (stereo unspecified)	-14%
CN(Cc1ncc[nH]1)C(=O)C1CCC(=O)N(CCc2ccccn2)C1 (stereo unspecified)	i
COc1ccc(-c2nnn3c2nc(NCc2ccccc2)c2ccccc23)cc1	-26%
Cc1ccc(S(=O)(=O)Nc2cccc(C(=O)Nc3nc(-c4ccccc4)cs3)c2)cc1	5%
O=C1c2ccccc2C(=O)N1c1ccc2ncccc2c1	i
CCN1CCCC1Cn1c(-c2ccccc2)nc2c(NCCOC)nc(C)nc21 (stereo unspecified)	-4%
CC(CO[C@@H]1O[C@H](COC(=O)/C=C/c2ccc(O)c(O)c2)[C@@H](O)[C@H](O)[C@H]1O)C1(O)COC(=O)C1 (stereo partly specified)	?
Cc1ccc(S(=O)(=O)c2nc(-c3ccc(Cl)cc3)oc2N2CCCCCC2)cc1	-27%
C[C@H](NC(=O)Cc1cc(F)cc(F)c1)C(=O)N[C@@H]1N=C(c2ccccc2)c2ccccc2N(C)C1=O	4%
CC1(C(=O)Nc2ncc(Cc3ccc(Br)cc3)s2)Cc2ccccc2C(=O)O1 (stereo unspecified)	-5%
O=C(Nc1cc(C2CC2)nn1-c1ccccc1)c1ccc(C(F)(F)F)cc1	-8%
CC(C)(C)OC(=O)N1CCN(c2ccc(NCc3cnc(-c4ccc(C#N)cc4)s3)cc2)CC1	i
CCn1c(=O)n([C@H]2CCCN(c3nccc(-c4cc5ccccc5o4)n3)C2)c2ccccc21	-1%
O=c1[nH]c2cccnc2n1CCc1ccccc1	-15%[39.2 µM]
